YopH inh = YopH (Yersinia) phosphatase inhibition. fluorescence Ex485/Em525. inhibition, %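 (about 10 µM by stock and volumes)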. 140,000 compounds, 0.16% hits. AID 898;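 active = inhibition of 50% or more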;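 also: controls were vehicle for no effect and minimum signal wells for full effect; inactives centre near -20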
Mtb betalactam = beta-lactam sensitization of Mtb H37Rv. M. tuberculosis H37Rv growth with meropenem, percent inhibition; hits of this screen are not shown here. inhibition, % at 25 µM. 330,000 compounds, 0.27% hits. AID 434955;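 active = about 74% or more and at least 40 points above the plate without the antibiotic, then above 30% in a dose series; inconclusive = first-round hits that could not be retested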;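 also: growth measured after seven days incubation then overnight dye step; 0% = bacteria only wells and 100% = bacteria with antibiotic; twin plates without the antibiotic show which effects depend on it; some results filed as inactive read as strong as hits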
Arbovirus anti = antivirals against arbovirus infection; arbovirus infection cell-based antiviral screen; inhibition, % at 10 µM; 200,000 compounds, 0.37% hits; AID 1251;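 active = inhibition from about 30%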;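 also: bluetongue infection of BSR cells; cell survival read as ATP light after 72 h; 0% = infected wells without compound and 100% = uninfected wells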
Mtb H37Rv = M. tuberculosis H37Rv growth inhibitors, H37Rv strain (AID 1626); M. tuberculosis H37Rv growth inhibition; higher % means a stronger effect; one-dose inhibition, % at 10 µM; IC50 in µM for titrated hits; 220,000 compounds, 0.95% hits;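 active = confirmed in a dose series; inconclusive = inhibition above 80% but not taken into the dose series; inactive = below 80% or under 30% at every dose of the series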;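 also: bacteria incubated seven days before Alamar blue readout; 0% = bacteria only wells and 100% = bacteria with antibiotic wells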
RecA splice inh = inhibitors of M. tuberculosis RecA intein splicing; P9WHJ3; cell-free RecA intein splicing, fluorescence; inhibition, %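 (about 9 µM by stock and volumes)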; 290,000 compounds, 0.75% hits; AID 2221; in the data active = inhibition above about 30%; inconclusive = no clear call, values can overlap the other calls;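 also: 0% = vehicle wells and 100% = reference inhibitor control wells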
Target sequence (P9WHJ3 whole entry, looked up, canonical isoform): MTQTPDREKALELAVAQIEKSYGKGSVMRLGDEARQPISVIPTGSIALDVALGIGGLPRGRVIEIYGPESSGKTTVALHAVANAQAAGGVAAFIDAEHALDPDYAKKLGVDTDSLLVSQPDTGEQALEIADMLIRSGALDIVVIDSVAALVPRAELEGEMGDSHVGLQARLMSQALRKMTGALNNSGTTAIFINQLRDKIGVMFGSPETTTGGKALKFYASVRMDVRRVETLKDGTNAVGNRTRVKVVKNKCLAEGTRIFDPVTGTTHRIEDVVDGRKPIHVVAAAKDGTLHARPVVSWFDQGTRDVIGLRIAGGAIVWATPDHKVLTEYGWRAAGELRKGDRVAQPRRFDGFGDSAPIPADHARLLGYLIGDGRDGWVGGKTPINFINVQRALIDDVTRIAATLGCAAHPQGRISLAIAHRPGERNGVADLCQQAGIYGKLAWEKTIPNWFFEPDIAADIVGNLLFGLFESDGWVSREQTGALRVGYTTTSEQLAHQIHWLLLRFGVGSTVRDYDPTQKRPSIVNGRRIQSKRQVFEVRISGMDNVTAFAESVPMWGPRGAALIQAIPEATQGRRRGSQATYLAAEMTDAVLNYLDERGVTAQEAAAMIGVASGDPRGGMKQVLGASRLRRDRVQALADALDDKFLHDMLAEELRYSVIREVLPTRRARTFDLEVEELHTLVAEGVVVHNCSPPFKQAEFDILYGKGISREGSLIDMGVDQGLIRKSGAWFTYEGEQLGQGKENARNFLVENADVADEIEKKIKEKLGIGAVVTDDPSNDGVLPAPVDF
Arbovirus anti repeat = second read-out of Arbovirus anti, no call of its own (marks repeat the call); inhibition, %; measured here: 10K subset replicate screen; many hits read low in the repeat;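 first of two repeat runs on a subset; 0% = infected and 100% = uninfected wells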
* = called active by the depositor; ? = inconclusive; . = no result given. The list is partial; count on the stated rates, not on these rows.

Start of the data: the first 6 entries, ahead of the listing:
SMILES	YopH inh	Mtb betalactam	Arbovirus anti	Mtb H37Rv	RecA splice inh	others
N#Cc1c(NC(=O)c2cc([N+](=O)[O-])ccc2N2CCOCC2)sc2c1CCCC2	-22	3	-10	15%	-0.5
Cc1ccc(-c2nc(C)sc2CC(=O)OCC(=O)Nc2cccc([N+](=O)[O-])c2)cc1	-8	-7	0	3%	3.0
Cc1onc(-c2ccccc2Cl)c1C(=O)N(C)CC(=O)Nc1ccc(F)c(F)c1F	.	0	.	.	-5.2
COc1ccc(OC)c(S(=O)(=O)N2CCC(C(=O)NC3CCCCCC3)CC2)c1	.	11	.	.	-5.4
Cn1c(-c2ccc(C=O)s2)nc2c3ccccc3c3ccccc3c21	1	-7	0	6%	-17
CC(C)C(=O)NCCc1nc2ccccc2n1C	-14	7	-3	-6%	-1.9

The listing (from the top)
SMILES	YopH inh	Mtb betalactam	Arbovirus anti	Mtb H37Rv	RecA splice inh	others
N#Cc1c(NC(=O)c2cc([N+](=O)[O-])ccc2N2CCOCC2)sc2c1CCCC2	-22	3	-10	15%	-0.5
Cc1ccc(-c2nc(C)sc2CC(=O)OCC(=O)Nc2cccc([N+](=O)[O-])c2)cc1	-8	-7	0	3%	3.0
Cc1onc(-c2ccccc2Cl)c1C(=O)N(C)CC(=O)Nc1ccc(F)c(F)c1F	.	0	.	.	-5.2
COc1ccc(OC)c(S(=O)(=O)N2CCC(C(=O)NC3CCCCCC3)CC2)c1	.	11	.	.	-5.4
Cn1c(-c2ccc(C=O)s2)nc2c3ccccc3c3ccccc3c21	1	-7	0	6%	-17
CC(C)C(=O)NCCc1nc2ccccc2n1C	-14	7	-3	-6%	-1.9
COC(=O)c1ccc(NC(=O)CN2CCC(NC(=O)c3ccco3)CC2)cc1	.	1	4	-9%	-0.7
Cc1ccc(S(=O)(=O)Nc2nc(C)c(C(=O)N/N=C/c3ccccc3)s2)cc1	.	3	4	1%	.
CC(C)(C)c1cc2cccnc2n1Cc1cccc(F)c1	-4	-7	2	-3%	0.1
CCOC(=O)N1CCN(C(=O)COc2cc(=O)n(C)c3ccccc23)CC1	2	5	2	-3%	3.5
CC(=O)Nc1ccc(C(=O)NNC(=O)C2CC2)cc1	.	-4	.	.	-0.9
CN(C)S(=O)(=O)c1ccc(Cl)c(C(=O)NCCNC(=O)c2cc(S(=O)(=O)N(C)C)ccc2Cl)c1	.	0	.	.	-1.6
CCOC(=O)c1cnc(-c2ccccc2)nc1Oc1ccc(C)cc1	-23	97	16	?	1.4
CC(C)(C)c1ccc(NC(=O)COC(=O)c2ccc([N+](=O)[O-])s2)cc1	-19	100	-2	?	.
COc1cccc(Nc2nc(N)nc(-c3oc4ccccc4c3C)n2)c1	15	93	-32	64%	3.0
Cc1sc2ncn(-c3ccccc3)c(=O)c2c1C	.	-6	-2	-11%	-4.0
Cc1ccc(S(=O)(=O)NNC(=O)c2cccs2)c(C)c1	-18	-6	4	-4%	7.7
COc1ccccc1CN1CC(C(=O)NCCc2cn[nH]c2)CCC1=O (stereo not given)	.	-1	.	.	1.1
CCc1nnc(NS(=O)(=O)c2ccc(NC(=O)COc3ccc4ccccc4c3)cc2)s1	.	14	42*	1%	.
O=C1CC(c2cccc(Cl)c2)CC(O)=C1C=NC1CCCC1 (stereo not given)	-39	7	-4	-4%	-1.2
COc1ccc2[nH]c(=O)c(CN(C(=O)c3ccncc3)C(C)C)cc2c1	23	-3	5	-8%	0.0
Cc1[nH]c2ccccc2c1N=Nc1ccccc1F	.	19	-27	0%	7.2
O=S(=O)(Nc1ccccc1)c1cccc2nsnc12	.	0	.	.	-0.3
CC(=O)Nc1nonc1-c1nc2ccccc2n1N(C(C)=O)C(C)=O	-37	9	6	-6%	-0.1	Arbovirus anti repeat=-1
CCNC(=S)N1N=C2c3ccccc3CCC2C1c1ccc(F)cc1 (stereo not given)	.	-3	.	-3%	2.1
CC(OC(=O)c1cc(Cl)ccc1[N+](=O)[O-])C(=O)NC(C)c1ccc(F)cc1 (stereo not given)	-18	100	0	?	-0.9
COc1cc([N+](=O)[O-])ccc1NC(=O)CN1CCOCC1	.	-4	18	-2%	-0.3
CC(C)(C)C(=O)NC(=S)NNC(=O)c1ccncc1	.	99	0	79%	-0.2
COC(C(=O)Nc1ccnn1C1CCN(Cc2ccc(Cl)s2)CC1)c1ccccc1 (stereo not given)	.	4	.	.	-2.2
Cc1ccc(OCC(O)CN2CCN(c3ccccc3)CC2)cc1 (stereo not given)	-29	-1	7	4%	4.6	Arbovirus anti repeat=0
O/N=C/c1cccnc1Sc1ccccc1	.	2	4	4%	-1.6
CCOc1ccc(CN(C(=O)c2ccco2)C2CCS(=O)(=O)C2)cc1 (stereo not given)	-17	1	8	-5%	-2.8
N#C/C(=C\Nc1ccc(F)c(Cl)c1)C(=O)C1CC1	.	-16	.	-3%	0.9
NC(=O)c1c(NC(=O)Cc2cccs2)sc2c1CCC2	20	5	-8	1%	0.2
Cn1c(CSCc2ccccc2Cl)nnc1SCC(=O)Nc1nccs1	-40	1	7	7%	7.6
CCOC(=O)C1CCN(C(=O)CCS(=O)(=O)c2ccc3c(c2)CCN3C(C)=O)CC1	-16	-2	3	-4%	-5.0
COc1ccc(NS(=O)(=O)c2ccc3oc(SC)nc3c2)cc1	.	6	.	.	1.5
O=C(Nc1ccnc(-c2ccncc2)n1)c1ccccc1Cl	.	2	3	4%	.
CC1(C)CC(N(Cc2ccco2)C(=O)Cc2ccccc2)CCO1 (stereo not given)	-6	-3	9	3%	-0.6
Cc1ccc(NC(=O)c2snc3c(=O)[nH]cnc23)cc1C	7	.	7	-7%	.
COC(=O)C1=C(C)NC2=C(C(=O)C(C(=O)OC)C(c3ccc(OC)cc3)C2)C1c1ccccn1 (stereo not given)	-22	0	-2	6%	-8.3
CCn1cc(CNC(=O)CCc2ccc(OC)cc2)cn1	-29	6	1	1%	-1.3
CCCCc1c(C)c2ccc(OC)c(/C(C)=N\O)c2oc1=O	-48	3	-1	.	-0.4
COc1ccc(-c2nn(CCC(=O)O)cc2/C=C/C(=O)O)cc1[N+](=O)[O-]	-21	-4	6	-8%	0.8
COc1ccc(Oc2coc3cc(OCC(=O)N4CCCCC4)ccc3c2=O)cc1	-30	-2	3	5%	-2.0

The closing 5 records of the section above lead into the next.
SMILES	YopH inh	Mtb betalactam	Arbovirus anti	Mtb H37Rv	RecA splice inh	others
COC(=O)C1=C(C)NC2=C(C(=O)C(C(=O)OC)C(c3ccc(OC)cc3)C2)C1c1ccccn1 (stereo not given)	-22	0	-2	6%	-8.3
CCn1cc(CNC(=O)CCc2ccc(OC)cc2)cn1	-29	6	1	1%	-1.3
CCCCc1c(C)c2ccc(OC)c(/C(C)=N\O)c2oc1=O	-48	3	-1	.	-0.4
COc1ccc(-c2nn(CCC(=O)O)cc2/C=C/C(=O)O)cc1[N+](=O)[O-]	-21	-4	6	-8%	0.8
COc1ccc(Oc2coc3cc(OCC(=O)N4CCCCC4)ccc3c2=O)cc1	-30	-2	3	5%	-2.0
CC(Oc1cc2oc(=O)c3c(c2cc1Cl)CCC3)C(=O)NCCN1CCOCC1 (stereo not given)	.	5	.	.	-1.6
Cc1ccc(Cl)cc1NS(=O)(=O)c1c(C)[nH]c(=O)[nH]c1=O	-40	-8	2	-9%	-1.1
COc1ccc(NC(=O)CCn2nc(C)cc2C)cc1	-46	3	3	-6%	1.4
COc1ccc(CNCC(O)(c2ccc(Cl)cc2)c2ccc(Cl)cc2)cc1OC	-24	57	-37	3%	6.1
Cc1ccc(CNC(=O)c2ccc(N(C)C)cc2)cc1	.	-7	-1	-4%	-0.5
CCOC(=O)C1(CCOC)CCN(C(=O)Cc2ccc3ccccc3c2)CC1	.	-3	.	.	0.9
COc1ccc(NC(=O)COC(=O)CNS(=O)(=O)c2ccc(C)cc2)c(OC)c1	-24	-8	-3	-4%	-3.2
COc1ccc([N+](=O)[O-])cc1C1NN=C(c2cccc3ccccc23)S1 (stereo not given)	3	4	-7	-1%	-4.7
Cc1ccc(-n2ncc(C(=O)O)c2C2CCN(C(=O)OC(C)(C)C)CC2)cc1	-16	-14	7	-6%	2.0
CCC(C)NC(=O)c1nn(C)c(=O)c2ccccc12 (stereo not given)	.	2	-5	-1%	-2.5
COc1ccccc1OCCCn1c(C)c(C#N)c2ccccc21	-46	5	5	1%	.
O=c1[nH]c(Nc2ccc3c(c2)OCCO3)nnc1Cc1ccc(Cl)cc1	.	0	-6	3%	.
COc1ccccc1Oc1ccc(NC(=O)c2ccccc2C)cc1	.	-3	5	3%	0.2
CCn1c2ccccc2c2cc(CNCc3ccc(OC)cc3OC)ccc21	.	100	-33	59%	7.2
CC(C)CCn1cnc2c1c(=O)[nH]c(=O)n2Cc1ccccc1	.	-3	.	.	1.5
CCOc1cc(CNCC(O)c2ccccc2)cc(Cl)c1OC (stereo not given)	.	-7	14	0%	-0.4
CCN1CCN(CCCNC(=O)c2cn(CCOC)c(=O)c3c2c2ccccc2n3C)CC1	-28	-15	2	-5%	1.3
CCN(CC)CCN1C(=O)C(O)=C(C(=O)c2cccs2)C1c1ccc(C)o1 (stereo not given)	-6	1	-2	-16%	0.9
Cc1ccccc1NC(=O)c1cccc(NC(=O)c2ccccc2C(=O)O)c1	.	11	.	.	1.4
CC(=O)c1ccc(NC(=O)CCNS(=O)(=O)c2cc(Br)cnc2N)cc1	.	-2	.	.	0.2
Cc1cc(N2CCN(C)CC2)ccc1NC(=O)c1cccc(S(=O)(=O)N2CCc3ccccc3C2)c1	.	99	-31	?	1.6
CCN(CC)CCN(C(=O)c1ccc2ccccc2c1)c1nc2ccc(OC)cc2s1	.	3	.	.	7.2
O=C(CNCc1ccccc1Cl)NCc1ccco1	.	-3	5	2%	-0.3
O=C(O)CCC(=O)NNC(=O)c1ccc(-c2ccccc2)cc1	-28	-3	-13	-13%	-3.6
O=C(CCC(=O)Nc1ccccc1)NNC(=O)C(c1ccccc1)c1ccccc1	-41	3	-2	-6%	-2.5
CC(C)OC(=O)Cn1c(=O)sc2ccccc21	-38	9	-10	-10%	.
COc1cc(/C=C/c2nnc3c4ccccc4ncn23)cc(OC)c1OC	-21	-3	17	5%	3.6
COc1cc(Cl)c(C)cc1NC(=O)CCNC(=O)c1ccco1	.	8	.	.	0.4
Cc1ccc(C(=O)NNC(=O)Cc2ccccc2)cc1	-11	-9	7	-7%	3.1
FC(F)(F)c1cc(-c2ccccc2)nc(NCc2cccs2)n1	2	30	-28	9%	4.8

Structures listed so far containing a cyano group (3):
SMILES	YopH inh	Mtb betalactam	Arbovirus anti	Mtb H37Rv	RecA splice inh	others
N#Cc1c(NC(=O)c2cc([N+](=O)[O-])ccc2N2CCOCC2)sc2c1CCCC2	-22	3	-10	15%	-0.5
N#C/C(=C\Nc1ccc(F)c(Cl)c1)C(=O)C1CC1	.	-16	.	-3%	0.9
COc1ccccc1OCCCn1c(C)c(C#N)c2ccccc21	-46	5	5	1%	.

Following part.
SMILES	YopH inh	Mtb betalactam	Arbovirus anti	Mtb H37Rv	RecA splice inh	others
COc1ccc2[nH]c3c(c2c1)CCN1C(=O)N([C@@H](C)C(=O)NCCc2ccc(F)cc2)C(=O)[C@]31C	.	5	.	.	-1.7
Cc1ccc([N+](=O)[O-])c(-c2n[nH]c(=S)n2-c2cccc(Cl)c2)c1	.	8	.	-8%	0.1
Cc1c(C#N)c(O)[nH]c(=O)c1N=Nc1ccc(Cl)c(C(=O)O)c1	.	-4	.	.	-2.5
CCOC(=O)c1cnc(SCC(=O)N2CCN(c3ccccc3)CC2)nc1N	-46	-6	-1	10%	0.3
Cc1cc2ccccc2n1CCNC(=O)c1ccccc1	-48	69	-2	8%	3.3
COc1ccccc1CC(=O)NC1CC(C)(C)NC(C)(C)C1	-53	2	6	.	-1.7
CCCN1C(=O)COc2ccc(C(=O)c3ccccc3C(=O)O)cc21	.	-2	1	2%	0.4
CC(=O)Nc1ccc(-c2csc(NC(=O)C3CSC4(C)CCC(=O)N34)n2)cc1 (stereo not given)	.	-1	.	.	-3.9
C=CCOc1ccccc1CNc1ccc2c(c1)OCCO2	.	87	-3	3%	2.6
Cc1ccc(-c2cc(C(F)F)n3ncc(C(=O)Nc4c(C)nn(Cc5c(Cl)cccc5Cl)c4C)c3n2)cc1	-50	90	-8	58%	-1.0
COc1ccc(/C=C\c2onc(C)c2S(=O)(=O)N2CCC(C(=O)NCCC(C)C)CC2)cc1	-31	-3	-24	0%	0.2
CCc1ccccc1NC(=O)c1nnn(CC(=O)Nc2ccccc2C)c1N	-27	-6	5	.	-2.5
Cc1nn(C(=O)CN2C(=O)c3ccccc3C2=O)c(C)c1Br	-48	-9	-3	-11%	-0.3	Arbovirus anti repeat=5
CC(=O)Nc1ccc(S(=O)(=O)NC(C)CCc2ccccc2)cc1 (stereo not given)	.	1	.	.	1.3
